High-throughput results: PubChem, several laboratories
RecA intein inh – inhibitors of M. tuberculosis RecA intein splicing. 290,000 compounds, 0.75% hits. inhibition, %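 (about 9 µM by stock and volumes)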. P9WHJ3. AID 2221. cell-free RecA intein splicing, fluorescence; in the data active = inhibition above about 30%; inconclusive = no clear call, values can overlap the other calls;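 note: 0% = vehicle wells and 100% = reference inhibitor control wells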
Target sequence (P9WHJ3 whole entry, looked up): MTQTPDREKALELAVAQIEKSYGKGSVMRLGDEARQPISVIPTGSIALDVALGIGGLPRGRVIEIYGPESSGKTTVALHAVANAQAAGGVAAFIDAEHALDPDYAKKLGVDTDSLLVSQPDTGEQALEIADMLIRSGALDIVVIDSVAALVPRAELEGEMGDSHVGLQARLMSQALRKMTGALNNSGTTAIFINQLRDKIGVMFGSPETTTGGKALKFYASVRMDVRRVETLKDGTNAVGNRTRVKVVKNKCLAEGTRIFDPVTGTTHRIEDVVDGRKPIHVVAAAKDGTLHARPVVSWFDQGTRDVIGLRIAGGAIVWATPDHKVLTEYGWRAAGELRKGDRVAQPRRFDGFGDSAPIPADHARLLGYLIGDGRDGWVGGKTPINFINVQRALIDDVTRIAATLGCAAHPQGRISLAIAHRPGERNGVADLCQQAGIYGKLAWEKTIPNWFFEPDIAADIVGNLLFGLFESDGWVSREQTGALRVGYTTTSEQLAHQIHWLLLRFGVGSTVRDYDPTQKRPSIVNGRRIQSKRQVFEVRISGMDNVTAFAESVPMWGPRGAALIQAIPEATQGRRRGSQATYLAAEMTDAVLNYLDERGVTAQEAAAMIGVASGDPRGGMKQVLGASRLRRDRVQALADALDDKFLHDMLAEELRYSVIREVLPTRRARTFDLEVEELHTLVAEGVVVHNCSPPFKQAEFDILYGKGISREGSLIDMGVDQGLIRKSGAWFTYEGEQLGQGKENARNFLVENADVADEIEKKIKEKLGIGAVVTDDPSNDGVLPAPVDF
Mtb betalactam – beta-lactam sensitization of Mtb H37Rv | AID 434955 | 330,000 compounds, 0.27% hits | inhibition, % at 25 µM | M. tuberculosis H37Rv growth with meropenem, percent inhibition; hits of this screen are not shown here;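 active = about 74% or more and at least 40 points above the plate without the antibiotic, then above 30% in a dose series; inconclusive = first-round hits that could not be retested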;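 note: growth measured after seven days incubation then overnight dye step; 0% = bacteria only wells and 100% = bacteria with antibiotic; twin plates without the antibiotic show which effects depend on it; some results filed as inactive read as strong as hits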
Mtb H37Rv – M. tuberculosis H37Rv growth inhibitors, H37Rv strain (AID 1626). M. tuberculosis H37Rv growth inhibition; higher % means a stronger effect. one-dose inhibition, % at 10 µM; IC50 in µM for titrated hits. 220,000 compounds, 0.95% hits;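 active = confirmed in a dose series; inconclusive = inhibition above 80% but not taken into the dose series; inactive = below 80% or under 30% at every dose of the series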;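 note: bacteria incubated seven days before Alamar blue readout; 0% = bacteria only wells and 100% = bacteria with antibiotic wells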
Arbovirus inh – antivirals against arbovirus infection. arbovirus infection cell-based antiviral screen. inhibition, % at 10 µM. 200,000 compounds, 0.37% hits. AID 1251;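 active = inhibition from about 30%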;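 note: bluetongue infection of BSR cells; cell survival read as ATP light after 72 h; 0% = infected wells without compound and 100% = uninfected wells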
YopH inh – YopH (Yersinia) phosphatase inhibition; fluorescence Ex485/Em525; inhibition, %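 (about 10 µM by stock and volumes)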; 140,000 compounds, 0.16% hits;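 active = inhibition of 50% or more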;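 note: controls were vehicle for no effect and minimum signal wells for full effect; inactives centre near -20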
Arbovirus inh repeat – second read-out of Arbovirus inh, no call of its own (marks repeat the call); inhibition, %; measured here: 10K subset replicate screen; many hits read low in the repeat;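 first of two repeat runs on a subset; 0% = infected and 100% = uninfected wells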
* = called active by the depositor; ? = inconclusive; . = no result given. An excerpt, so the mix of outcomes need not match the whole.

SMILES	RecA intein inh	Mtb betalactam	Mtb H37Rv	Arbovirus inh	YopH inh	others
CCOc1ccc(S(N)(=O)=O)cc1-c1nc2c(C(C)(C)C)nn(C)c2c(=O)[nH]1	0.0	-8	-12%	.	.
CC(C)N=C(NS(=O)(=O)c1ccccc1)C(Cl)(Cl)Cl	6.7	-9	-6%	-16	-33
O=C1CC(c2ccccc2)=Nc2ccc(Br)cc2N1	-4.1	9	4%	-3	.
O=c1c2cc3c(=O)n(CC4CCCO4)c(=O)c3cc2c(=O)n1CC1CCCO1 (stereo unspecified)	-0.7	-5	-10%	0	-15
N=C1C(c2nc3ccccc3[nH]2)=C(O)CN1c1ccccc1	1.3	73	16%	-13	-16
COc1ccc(Nc2nc(NC(C)(C)C)nc(N3CCCC3)n2)c(OC)c1	7.0	99	?	13	-5
Cc1ccccc1/C=N\NC(=O)c1ccc(Cn2cccn2)o1	-1.2	-2	-8%	0	-29
Cc1ccc(S(=O)(=O)N2CCN(c3c([N+](=O)[O-])cc(C(F)(F)F)cc3[N+](=O)[O-])CC2)cc1	5.3	-1	-3%	10	-24
CCS(=O)(=O)C1=NN2C(=N)/C(=C\c3ccc(OS(=O)(=O)c4ccccc4)c(OC)c3)C(=O)N=C2S1	10	1	.	.	.
O=C(CSCc1ccc(F)cc1)N1CCOCC1	-6.0	0	-24%	7	-19
CC(=O)Nc1ccc(Oc2nc(C)cc(C)n2)cc1	0.1	1	-1%	-2	-22
CC(=O)c1cccc(NC(=O)C2COc3ccccc3O2)c1 (stereo unspecified)	0.9	-2	.	.	.
Cc1noc(C)c1COC(=O)c1ccc(N(C)C)cc1	-0.2	-8	0%	-10	.
CC(=O)Nc1ccc(C2=NN(c3ccccc3)C(c3cccs3)C2)cc1 (stereo unspecified)	-7.1	5	12%	-8	.
Cc1[nH]c2ccccc2c(=O)c1C(=O)/C=C/c1ccccc1	-0.4	86	.	.	.
COc1c2c(cc3oc(=O)c4c5ccc(O)cc5oc4c13)OC(C)(C)CC2	-0.3	-8	-9%	.	.
O=C(N/N=C/c1ccc(Br)cc1)c1cc[n+](Cc2ccccc2)cc1	-9.9	1	-8%	2	-20
O=C(CSc1nc2ccccc2c(=O)[nH]1)Nc1ccc(S(=O)(=O)N2CCCC2)cc1	-2.7	?	-2%	-12	-44
O=S(=O)(N/N=C\c1cccnc1)c1ccccc1	2.8	5	3%	2	-23
CSc1ncccc1C(=O)OCC(=O)c1ccc2c(c1)NC(=O)CO2	0.6	8	-9%	.	.
O=S(=O)(c1ccccc1)c1cnc(-c2ccccc2)nc1N1CCCCC1	7.6	6	11%	3	.
O=[N+]([O-])c1cc(C(F)(F)F)ccc1SCC(O)CO (stereo unspecified)	-2.7	2	4%	6	.
Cc1ccc(S(=O)(=O)NCC(c2ccco2)N2CCc3ccccc3C2)cc1 (stereo unspecified)	2.4	-4	.	.	.
N#CC1(c2ccccc2)CCCN1C(=O)c1ccco1 (stereo unspecified)	-0.7	-8	0%	10	-6	Arbovirus inh repeat=1
COc1ccc(C(=O)N(C)c2ccccc2C(=O)NCCc2ccccc2)cc1	16	5	.	.	.
CC(=O)c1cccc(N(C(=O)Cn2nnc3ccccc32)C(C(=O)NC2CCCCC2)c2cn(C)nc2C)c1 (stereo unspecified)	-5.8	10	5%	2	5
Cc1nnc2ccc(N3CCC4(CC3)OCCO4)nn12	1.6	-1	1%	-2	8
Cc1ccc2c(c1)C1CN(C)CCC1N2C(=O)c1cn(-c2ccccc2)nc1-c1ccccc1 (stereo unspecified)	4.6	1	11%	-32	.
C/C(=C(\C#N)C(=O)NCc1ccccc1)N(C)C	-2.2	1	-4%	4	-18
Cc1c(C)c2c(OCC(=O)N[C@@H](Cc3ccccc3)C(=O)O)cc3c(c2oc1=O)CCC(C)(C)O3	-0.3	-1	.	.	.
O=C(Nc1nnc(-c2ccc(F)cc2)o1)c1cc(Cl)sc1Cl	-0.4	95	<0.2µM*	2	-13
CC(C)C(=O)NC(Nc1cccc2cccnc12)C(Cl)(Cl)Cl (stereo unspecified)	7.5	-8	-3%	8	-8
NNC(=O)c1cc2ccccc2cc1NS(=O)(=O)c1ccccc1	8.3	0	.	.	.
CCn1c(=O)cc(N2CCC3(CC2)OCCO3)[nH]c1=O	2.9	-1	0%	1	-38	Arbovirus inh repeat=-4
COc1ccc(C2C3=C(CC(C)(C)CC3=O)Oc3ncn(CCCn4ccnc4)c(=N)c32)cc1 (stereo unspecified)	-0.8	-5	-8%	-2	-31
O=C(NC1CC1)C(Cc1ccccc1)NS(=O)(=O)c1ccccc1F (stereo unspecified)	-0.9	-1	.	.	.
O=C(NCc1ccccc1)c1csc2c1CCCC2	-0.7	7	10%	-7	.
CCN1C(=O)/C(=C\c2cccc(OC(=O)c3ccco3)c2)SC1=S	0.8	1	.	.	.
O=C(O)c1cccc(NC(=O)c2ccccc2NC(=O)c2ccccc2F)c1	-3.7	7	.	.	.
Nc1ccc(-c2nc(-c3ccccc3)nc3ccccc23)cc1	-48	?	.	.	.
O=C(Nc1cccnc1)Nc1cc(Cl)cc(Cl)c1	10.0	74	?	-26	.
CC(C)(C)NC(=O)[C@@H]1CN(Cc2cccnc2)CCN1C[C@@H](O)C[C@@H](Cc1ccccc1)C(=O)N[C@H]1c2ccccc2C[C@H]1O	0.1	-1	-9%	.	.
COc1ccc(NC(=O)C2CCCN(S(=O)(=O)c3c(C)[nH]c(=O)[nH]c3=O)C2)cc1 (stereo unspecified)	-1.5	9	0%	6	-9
CC(C)(C)C(=O)N1CCN(c2ccnc3cc(Cl)ccc23)CC1	0.8	-2	.	.	.
Cc1cccc(NC(=O)C(C)Oc2ccccc2C)n1 (stereo unspecified)	1.1	-9	-7%	4	-13
O=C(O)C1[C@H]2C(=O)N(C3CCCC3)C[C@]23C=C[C@H]1O3 (stereo partly specified)	1.4	-3	-6%	0	-44
O=C(N=Nc1ccc(NOC(=O)c2ccccc2Br)cc1)c1ccccc1O	1.2	86	?	-24	.
COc1ccc(C(=O)N2CCCCCCC2)cc1OC1CCN(C(C)C)CC1	0.9	10	.	.	.
COc1ccc(C2C3=C(CCCC3=O)Nc3nc(SCc4ccccc4)nn32)cc1OC (stereo unspecified)	6.6	-28	7%	13	16
Cc1ccc(-c2nnn(CC(=O)Nc3ccc4nn(-c5ccccc5)nc4c3)n2)o1	1.5	-2	.	-3	-48
CSc1cccc(NC(=O)C2CCN(C(=O)c3ccccc3C)CC2)c1	0.6	10	-10%	-8	-16
C[N+]1(CC(=O)OC2CCCCCCCCCCC2)CCCC1	-1.4	16	6%	-6	.
O=C(O)/C=C/C(=O)NCCc1cccc(Cl)c1	2.5	-9	7%	1	.
C[C@H]1C=C(C(=O)NC2CC2)O[C@@H](OCc2ccc(CO)cc2)C1	4.0	-7	-5%	.	.
Cc1cc(C)c(C#N)c(Nc2cccc(Br)c2)n1	1.6	5	.	.	.
C[N+](C)(C)CCNC(=O)c1cc[n+](Cc2ccccc2)c(/C=N/O)c1	-0.1	-2	.	.	.
CC12CC(NC(=O)N1c1cccc(C(=O)N3CCN(c4ccccn4)CC3)c1)c1ccccc1O2 (stereo unspecified)	-0.1	-15	-4%	6	-20
CCn1cc(C(=O)N2CCN(c3ccccc3)CC2)c(=O)c2cc(S(=O)(=O)N3CCOCC3)ccc21	-1.8	-3	.	.	.
O=C(O)c1ccc(Sc2nnc3ccccn23)c([N+](=O)[O-])c1	0.2	-3	-7%	.	.
COc1ccc(CCNC(=O)c2ccc(CNS(=O)(=O)c3ccccc3)cc2)cc1OC	-3.8	2	1%	-25	-6

Continuation.
SMILES	RecA intein inh	Mtb betalactam	Mtb H37Rv	Arbovirus inh	YopH inh	others
COCCNC(=O)c1onc(CSc2ccc(F)c(F)c2)c1C(=O)O	-1.8	-1	-4%	3	-1
CCN(CC)c1ccc(/C=C2\C(=O)c3ccc(C(=O)O)cc3C2=O)cc1	.	4	-3%	-3	-6
O=C1OC(N2CCN(c3ccccn3)CC2)c2ccccc21 (stereo unspecified)	-2.2	7	-1%	1	-2
CCOc1ccccc1N(C(=O)c1snc(C(N)=O)c1N)C(C(=O)NCCC(C)C)c1ccco1 (stereo unspecified)	1.8	59	11%	-10	-14
COc1ccccc1NC(=O)c1nc[nH]c1C(=O)Nc1ccccc1OC	0.1	12	3%	-6	-33
CCCCN(CCCC)C(=O)c1cn(CC)c2cc(N3CCN(C)CC3)c(F)cc2c1=O	-0.8	8	.	.	.
CCOC(=O)C1CCN(C(=O)c2ccc(OCC(=O)Nc3cccc(C(F)(F)F)c3)cc2)CC1	2.7	70	.	.	.
Cn1c(=O)c2c(nc(CN3CCN(Cc4ccccc4)CC3)n2Cc2cccc(Cl)c2)n(C)c1=O	-1.0	-2	11%	-8	-9	Arbovirus inh repeat=-10
CC(C(=O)NCC1(c2ccccc2)CCCC1)N1CCCC1 (stereo unspecified)	2.6	4	-15%	7	-15
O=C(COc1ccc2c3c(c(=O)oc2c1)CCC3)NCc1ccccn1	0.6	-7	.	.	.
O=c1ccc(-c2ccc(S(=O)(=O)N3CCCCC3)o2)n[nH]1	1.3	5	.	.	.
O=C1OC(N2CCN(C/C=C/c3ccccc3)CC2)c2ccccc21 (stereo unspecified)	-4.7	4	.	-2	-52

Among those listed so far, these have an aryl methoxy group.
SMILES	RecA intein inh	Mtb betalactam	Mtb H37Rv	Arbovirus inh	YopH inh	others
COc1ccc(Nc2nc(NC(C)(C)C)nc(N3CCCC3)n2)c(OC)c1	7.0	99	?	13	-5
CCS(=O)(=O)C1=NN2C(=N)/C(=C\c3ccc(OS(=O)(=O)c4ccccc4)c(OC)c3)C(=O)N=C2S1	10	1	.	.	.
COc1c2c(cc3oc(=O)c4c5ccc(O)cc5oc4c13)OC(C)(C)CC2	-0.3	-8	-9%	.	.
COc1ccc(C(=O)N(C)c2ccccc2C(=O)NCCc2ccccc2)cc1	16	5	.	.	.
COc1ccc(C2C3=C(CC(C)(C)CC3=O)Oc3ncn(CCCn4ccnc4)c(=N)c32)cc1 (stereo unspecified)	-0.8	-5	-8%	-2	-31
COc1ccc(NC(=O)C2CCCN(S(=O)(=O)c3c(C)[nH]c(=O)[nH]c3=O)C2)cc1 (stereo unspecified)	-1.5	9	0%	6	-9
COc1ccc(C(=O)N2CCCCCCC2)cc1OC1CCN(C(C)C)CC1	0.9	10	.	.	.
COc1ccc(C2C3=C(CCCC3=O)Nc3nc(SCc4ccccc4)nn32)cc1OC (stereo unspecified)	6.6	-28	7%	13	16
COc1ccc(CCNC(=O)c2ccc(CNS(=O)(=O)c3ccccc3)cc2)cc1OC	-3.8	2	1%	-25	-6
COc1ccccc1NC(=O)c1nc[nH]c1C(=O)Nc1ccccc1OC	0.1	12	3%	-6	-33
